HNF4A DNA FP: change in binding of human HNF4A to DNA, primary screen, biochemical, fluorescence polarization, FITC-DNA. Hepatocyte nuclear factor 4-alpha (Homo sapiens), P41235. 1 h. activity change, % at 10 µM. 0.3% of 360,000 active; in the data active means activity change above about 30%, passing the limit was not always enough;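 further: controls were the assay level and a saturating level of protein; the project sought stronger binding though the title names inhibitors; some compounds called inactive have numbers as strong as hits; positive values seem to mean higher polarization but the record does not say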
UCH37 DUB inh: inhibitors of human UCH37 deubiquitinase, primary screen, biochemical, Ub-AMC cleavage, fluorescence; Ubiquitin carboxyl-terminal hydrolase isozyme L5 (Homo sapiens), Q9Y5K5; purified proteasome/UCH37; inhibition, % (concentration not given with the values); 0.33% of 330,000 active; AID 588478, 2011;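 active means mean of two replicates above 20%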;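 further: 0% = compound-free wells with enzyme and 100% = wells lacking proteasome; stock transfer was 100 nL into about 20 µL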
Target sequence (Q9Y5K5 whole entry, looked up): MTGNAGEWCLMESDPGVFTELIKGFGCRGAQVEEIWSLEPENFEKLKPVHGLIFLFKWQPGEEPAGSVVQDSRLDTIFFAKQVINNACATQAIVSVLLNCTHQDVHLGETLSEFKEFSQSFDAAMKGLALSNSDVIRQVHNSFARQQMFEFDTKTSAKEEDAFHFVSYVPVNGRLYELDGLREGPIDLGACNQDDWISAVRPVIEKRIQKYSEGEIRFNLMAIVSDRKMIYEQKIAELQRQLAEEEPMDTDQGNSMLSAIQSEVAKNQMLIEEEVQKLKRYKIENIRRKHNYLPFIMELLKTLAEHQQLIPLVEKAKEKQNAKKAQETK
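Material: human UCH37 enzyme supplied as purified proteasome complex / Amount: 0.15 nM proteasome as dispensed / Buffer or medium: pH 7.4 Tris-HCl (50 mM) with ovalbumin, ATP-MgCl2, DTT / Times: preincubation 30 min, reaction 25 min, room temperature / Technique: AMC fluorescence from Ub-AMC cleavage, excitation 355 nm, emission 460 nm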
E coli growth: E. coli growth inhibition, primary screen, OD600; Escherichia coli growth, 23 h; stronger effect = lower value; 0.21% of 330,000 active; OD600 absorbance (test concentration not listed);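 active means OD600 absorbance below the run mean of sample wells minus 3.6 SD, in any replicate, cut at about 0.56 in these data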;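 further: stock transfer was 300 nL into about 60 µL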
Vif A3G: inhibitors of Vif binding to APOBEC3G peptide, primary screen, biochemical, TR-FRET, GST-Vif 1-94, biotin-A3G peptide, dose response retest (AID 1117319); Virion infectivity factor (Human immunodeficiency virus type 1 group M subtype B (isolate …; TR-FRET GST-Vif / biotin-A3G peptide binding; higher % means a stronger effect; test concentration not given here; strong numbers were not always called active; inhibition, %; hits with a dose series show IC50 in µM; 0.57% of 260,000 active;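 active means above the screen mean plus three standard deviations and confirmed in dose response; inconclusive means results disagree or hit not tested in dose response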;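 further: Vif residues 1-94 fused to GST binding biotinylated APOBEC3G peptide 110-148; 0% = full assay without inhibitor and 100% = GST in place of GST-Vif; retest series ran down from 100 µM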
FGF22 binding: binders of human FGF22 protein, primary screen, FGF22 synaptogenesis inhibitor project, biophysical, thermal shift, single point; recombinant FGF22 thermal shift, SYPRO orange fluorescence; percent of sucrose octasulfate shift, DMSO zero; calls only at 9.99 µM; 1.5% of 340,000 active; AID 651658, 2012;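 active means melting point raised past a set limit in the mean and every replicate; inconclusive means no clear call; three in four hits are not shown here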
Target sequence (Q9HCT0 whole entry, looked up): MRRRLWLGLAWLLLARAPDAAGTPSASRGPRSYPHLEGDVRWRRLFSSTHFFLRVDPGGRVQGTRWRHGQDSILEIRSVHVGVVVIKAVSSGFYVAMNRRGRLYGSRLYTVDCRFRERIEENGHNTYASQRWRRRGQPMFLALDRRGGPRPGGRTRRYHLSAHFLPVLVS
MLL AF4-AF9 inh: inhibitors of AF4 peptide binding to AF9, primary screen, biochemical, AlphaScreen, biotin-AF4 peptide, FLAG-AF9, single point; 0.47% of 350,000 active; Protein AF-9 (Homo sapiens), P42568; inhibition, % at 10 µM; AID 651704, 2012;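 active means every replicate reaching a set inhibition limit, whatever the replicate mean, cut at about 25% in these data; inconclusive means mean inhibition reaches that limit but some replicates miss it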;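 further: 0% = plate neutral control median and 100% = total signal loss; the record names both 10 and 1 µM as test concentration; the first replicate is given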
Target sequence (P42568 whole entry, looked up): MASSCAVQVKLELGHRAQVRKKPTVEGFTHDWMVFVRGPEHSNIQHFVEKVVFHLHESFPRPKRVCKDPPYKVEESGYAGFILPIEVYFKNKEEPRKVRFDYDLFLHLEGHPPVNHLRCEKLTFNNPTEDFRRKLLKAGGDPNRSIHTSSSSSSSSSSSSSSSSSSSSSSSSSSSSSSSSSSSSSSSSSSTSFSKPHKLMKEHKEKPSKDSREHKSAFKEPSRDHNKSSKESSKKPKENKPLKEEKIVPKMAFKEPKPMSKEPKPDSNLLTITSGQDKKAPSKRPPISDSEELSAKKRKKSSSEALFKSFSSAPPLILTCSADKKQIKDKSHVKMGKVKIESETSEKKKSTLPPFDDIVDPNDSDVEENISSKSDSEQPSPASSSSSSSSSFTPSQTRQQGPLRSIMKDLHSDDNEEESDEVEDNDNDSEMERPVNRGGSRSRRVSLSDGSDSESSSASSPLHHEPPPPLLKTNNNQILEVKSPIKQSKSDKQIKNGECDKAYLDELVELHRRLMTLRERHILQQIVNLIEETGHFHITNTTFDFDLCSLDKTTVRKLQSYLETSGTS
RanGTP-Imp inh: inhibitors of RanGTP-importin-beta interaction, primary screen, biochemical, FRET, CFP-Ran, YFP-importin-beta, homogeneous; 1.1% of 300,000 active; inhibition, % (test concentration not listed); cell-free CFP-Ran/YFP-importin-beta FRET ratio; Ran GTPase (GTP-bound) - importin-beta complex; AID 2216, 2009;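 active means most replicates above 15%; inconclusive means exactly half above 15%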;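 further: 0% = DMSO wells and 100% = Ran loaded with GDP instead of GTP; wells of about 40 µL received 100 nL stock; the first replicate is given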
Active calls of the source: *; i = inactive; ? = inconclusive; . = no result given; & = joins results of further samples. An excerpt; rates above refer to the full screens.

SMILES	HNF4A DNA FP	UCH37 DUB inh	E coli growth	Vif A3G	FGF22 binding	MLL AF4-AF9 inh	RanGTP-Imp inh
Nc1ccc(C(=O)Nc2ccco2)cc1	-0.8	2.8	0.69	12.3%	.	.	37.0*
C/C(=C\c1cccc(Cl)c1Cl)C(=O)c1c(C)cc(C)[nH]c1=O	1.7	5.2	0.689	.	i	-10.4	2.0
Cc1ccccc1OCC1Cc2c(nc(N)c(C#N)c2N)O1 (stereo unspecified)	-2.0	0.4	0.708	1.9%	.	.	.
Cc1ccc(NC(=O)CCn2c(=O)[nH]c3ccsc3c2=O)cc1	-0.6	0.6	0.671	0.1%	i	-9.2	-1.2
CCCCCn1c(=O)[nH]c2cc(C(=O)NCCN3CCOCC3)ccc2c1=O	1.0	-10.8	0.73	.	.	.	.
O=C(CCn1nc(-c2ccc(Cl)cc2)ccc1=O)NCc1cccnc1	1.8	2.6	0.738	-2.9%	.	.	-3.1
CCCCC(=O)Nc1nc2c(OC)cc([N+](=O)[O-])cc2s1	-0.6	4.3	0.71	.	i	-0.2	0.7
CCCCCc1c2c(cc(O)c1C(=O)O)OC(=O)c1cc(C(=O)CCCC)c(OC)cc1O2	-7.4	6.7	0.75	.	.	-1.1	.
CCOc1cc(C(=O)NCC2CCCO2)cc(OCC)c1OCC (stereo unspecified)	3.5	4.8	0.638	5.1%	.	.	6.5
C/C(CC(C)C)=N\Nc1ccc(S(N)(=O)=O)cc1[N+](=O)[O-]	-1.2	.	.	-14.0%	i	9.6	-0.5
CCc1nc2ccc(C(=O)Nc3ccc(NC(C)=O)cc3)cn2c1N(CCC(C)C)CCN(C)C	-0.3	.	.	.	i	3.3	.
Cc1ccc2nc(N3C(=O)C(O)=C(C(=O)c4ccc(C)o4)C3c3ccco3)sc2c1 (stereo unspecified)	0.3	.	.	-1.2%	i	2.6	.
COc1cccc(C(c2nnnn2C2CCCC2)N2CCN(C/C=C/c3ccccc3)CC2)c1OC (stereo unspecified)	-0.1	.	.	.	i	12.4	.
CC(C)COC(=O)N1CC(O)CC1C(=O)Nc1ccc2c(c1)OCO2 (stereo unspecified)	1.7	0.7	0.709	-8.0%	i	-0.8	.
COc1ccc(F)cc1-c1cc(C(=O)NCc2cccc(C(F)(F)F)c2)[nH]n1	-0.9	.	.	.	i	-3.9	.
CCOC(=O)c1ccc(NC(=O)CSc2n[nH]c(-c3ccncc3)n2)cc1	-1.2	-2.2	0.738	21.0%	.	.	-1.8
COc1ccc(C(C)=O)cc1COC(=O)C(CO)NS(=O)(=O)c1ccc(Br)cc1 (stereo unspecified)	-2.0	1.5	0.704	?	i	-3.3	2.4
CSc1nc(=O)n2cc(C)ccc2n1	-3.4	2.6	0.701	22.0%	.	-0.6	1.1
CCOc1ncccc1C(=O)Nc1cccc(S(=O)(=O)N2CCOCC2)c1	-0.2	4.0	0.71	.	i	-2.0	.
Cc1c(C)c2ccc(OC(C)C(=O)NC3CC(C)(C)NC(C)(C)C3)cc2oc1=O (stereo unspecified)	-2.5	-130.2	0.694	.	i	-3.3	8.4
COc1ccccc1NC(=O)CCNC(=O)C1CCN(S(=O)(=O)c2ccccc2)CC1	-2.4	.	.	0.5%	i	-0.1	.
CN(C)c1ccc(/C=N/n2cnn(Cc3ccccc3Cl)c2=S)cc1	4.8	.	.	-0.1%	i	5.1	7.5
COc1cccc(C2C(C#N)=C(C)NC3=C2C(=O)CC(C)(C)C3)c1 (stereo unspecified)	2.3	i	0.681	-9.5%	i	-5.3	1.8
COCCN(C(=O)CSc1nnc(-c2ccccc2F)o1)c1c(N)n(CC(C)C)c(=O)[nH]c1=O	-6.0	7.6	0.639	-1.8%	i	-0.2	2.1
Clc1ccc(Cc2ccc(SCc3ccccc3)nn2)c(Cl)c1	2.1	3.4	0.689	2.0%	.	.	4.5
O=C(NC1CCCC1)c1ccc(CS(=O)(=O)Cc2ccccc2F)o1	-2.5	1.1	0.702	.	i	-0.4	0.4
CCn1cc(CNCc2ccc(OCC(O)CN(C)Cc3ccccc3)cc2)cn1 (stereo unspecified)	2.8	2.2	0.662	13.6%	.	.	-2.2
COc1ccc(NC(=O)Cn2nnc(C(=O)NCc3ccc4c(c3)OCO4)c2N)cc1	0.7	6.0	0.694	-4.8%	i	-2.6	-6.1
COc1ccc(/C=N/NC(=O)c2cccnc2)cc1	3.7	.	.	-4.2%	i	-6.7	2.1
CCC(=O)NNC(=O)CCC(=O)Nc1ccccc1	.	.	.	6.6%	i	-3.4	7.1
N#C/C(=C(\O)CCl)c1nnc2n1CCCCC2	-2.1	.	.	-4.5%	.	.	2.5
O=C1c2ccccc2C(c2nnnn2Cc2ccccc2)N1CCc1ccc(O)cc1 (stereo unspecified)	2.2	.	.	.	i	1.7	.
Cn1nc(/C=C/c2ccccc2)ccc1=O	2.0	-99.2	0.63	1.0%	.	1.1	0.4
O=C(CN(c1ccccc1)S(=O)(=O)c1ccccc1)NCCSCc1ccco1	-6.6	-0.6	0.72	4.3%&16.9%	.	.	-0.3
CNC(=O)c1sc(Nc2cc(C)ccc2C)nc1C	3.3	6.1	0.691	6.8%	i	-0.9	-0.5
CCc1ccc(-c2cc(C)no2)cc1S(=O)(=O)N1CC(=O)Nc2ccccc21	2.7	-1.3	0.69	-7.5%	i	1.9	-0.8
Cc1c(C(=O)O)oc2ccc(S(=O)(=O)NCCC3=CCCCC3)cc12	-1.2	4.6	0.692	17.1%	.	.	6.2
CN(C)c1ccc(C(=S)N2CCCCC2)cc1Br	0.4	3.9	0.704	11.4%	i	4.1	?
CC(CC(=O)N1CCN(S(=O)(=O)c2ccccc2)CC1)n1cncn1 (stereo unspecified)	4.8	1.0	0.708	.	i	0.0	-0.4
O=C(CSc1nnc(Cc2cc(=O)[nH]c(=O)[nH]2)n1-c1ccccc1)NCC1CCCO1 (stereo unspecified)	1.9	2.9	0.685	3.6%	.	.	0.3
CCOC(=O)C1=C(COC(=O)CNS(=O)(=O)c2ccc(C)c(C)c2)NC(=O)NC1C (stereo unspecified)	-2.1	.	.	10.9%	i	-1.4	.
Fc1ccc(NC(=S)SCc2ccc3c(c2)OCO3)cc1F	-2.2	.	.	3.7%	i	2.9	.
CCOCCCNC(=O)c1ccccc1Br	-3.0	0.7	0.732	79.3%	.	.	-2.0
CCOC(=O)c1sc(=N)n(-c2ccc(OC)cc2)c1C	-4.6	-7.6	0.7	-1.8%	i	-5.1	2.6
CS(=O)(=O)N(CC(=O)NC1CCCCC1)c1cccc(F)c1	2.1	0.4	0.713	14.1%	i	-2.1	1.7
Cc1ccccc1-c1n[nH]c(=S)n1/N=C/C=C/c1ccco1	9.6	.	.	?	i	1.0	-0.6
CCc1noc(C)c1C(=O)OCC(=O)Nc1ccc(F)cc1Cl	1.8	5.0	0.634	-10.7%	i	-0.5	.
COCc1cc(CN(C)C(=O)c2oc3c(F)cccc3c2C)[nH]n1	-5.2	5.9	0.702	.	i	-1.7	1.2
COC(=O)c1cc(=O)c2c([N+](=O)[O-])ccc(OC)c2o1	-2.1	6.6	0.686	3.8%	i	1.3	1.3
CCOC(=O)c1n[nH]n2c1nc(=O)c1ccccc12	-1.9	-51.1	0.662	.	i	-2.5	0.5
N#Cc1cc(Br)ccc1N=C1CCCN1c1ccccc1	0.2	-0.7	0.666	?	i	-0.5	4.1
COc1ccc(-c2cn(-c3ccc(C)c(Cl)c3)c(=S)[nH]2)cc1OC	6.4	2.7	0.584	.	i	4.4	2.5
COCCOC(=O)C1=C(C)N(Cc2ccccc2)C(=O)NC1c1ccc(OC)cc1 (stereo unspecified)	1.4	-0.3	0.701	-3.7%	.	.	3.4
Cn1ncc(Cl)c1C(=O)Nc1nc2ccc(Cl)cc2s1	-4.1	-2.4	0.686	-25.9%	i	0.6	-1.0
O=C(Oc1ccccc1N1C(=O)C2CCCCC2C1=O)c1ccc(Cl)cc1 (stereo unspecified)	1.3	0.3	0.673	4.0%	.	.	1.2
CC(c1ccccc1)N1CC(C(=O)O)CC1=O (stereo unspecified)	2.7	-1.4	0.725	-8.4%	i	-0.4	0.1
S=C(N/N=C/c1cccs1)NC1CC2CCC1C2 (stereo unspecified)	-1.1	.	.	89.7%	i	.	-3.2
CCN(CC)CCNCC(=O)N1c2ccccc2CCc2ccc(NC(=O)OC)cc21	-1.9	1.9	0.691	.	i	7.0	-1.7
CCOc1ccc2nc(N(CCN(C)C)C(=O)c3cc4ccccc4cc3OC)sc2c1	5.9	-0.4	0.697	6.3%	.	.	-1.9
O=C(NC1(C(F)(F)F)C(=O)Nc2c1c(=O)[nH]c(=O)n2Cc1ccccc1)c1ccco1 (stereo unspecified)	3.1	4.2	0.709	-7.2%	.	.	-3.1
(more compounds)
SMILES	HNF4A DNA FP	UCH37 DUB inh	E coli growth	Vif A3G	FGF22 binding	MLL AF4-AF9 inh	RanGTP-Imp inh
COc1cccc(N2C(=O)N(c3ccccc3Cl)C3CS(=O)(=O)CC32)c1 (stereo unspecified)	-1.1	6.8	0.693	7.7%	.	.	?
Cc1ccc(S(=O)(=O)N2CCCCC2)cc1NC(=O)CCc1nc2ccccc2c(=O)[nH]1	10.8	5.2	0.659	0.2%	i	-28.6	.
O=C(c1ccccc1F)N1CCN(CC2CC3C=CC2C3)CC1 (stereo unspecified)	-1.2	2.4	0.717	7.5%	.	.	2.5
O=C(NCCc1ccccc1)c1cc(S(=O)(=O)N2CCCCC2)c[nH]1	6.1	.	.	.	i	2.1	.
CSc1sc(C)cc1C=O	1.6	2.8	0.733	3.8%	i	-1.5	?
Cn1nnnc1NCc1cccc(Cl)c1	-2.5	4.9	0.702	4.0%	.	-1.6	2.4
Cc1ccc2cc(CN(CC3CCCO3)C(=O)c3cccs3)c(=O)[nH]c2c1 (stereo unspecified)	1.5	2.6	0.709	.	i	-1.8	7.3
COC1(OC)C(/C=C/c2ccc(Cl)cc2)C(C#N)(C#N)C1(OC)OC (stereo unspecified)	0.2	.	.	5.2%	.	.	1.7
COc1ccccc1N1CCN(C(=O)c2cc3cc(C)ccc3[nH]2)CC1	-1.5	0.6	0.669	.	i	-3.6	0.6
Cc1cccc(NC(=O)C2CC(=O)N(Cc3ccccc3)C2)n1 (stereo unspecified)	1.0	-0.5	0.704	-1.6%	i	-0.8	-5.8
COc1ccc(N2CC(O)=C(c3nc(-c4ccccc4)cs3)C2=N)cc1	0.5	3.2	0.735	?	i	8.0	5.6
O=C1N(c2ccccc2C(F)(F)F)O[C@@]1(c1ccccc1)C1CCCC1	-1.5	4.7	0.641	.	i	-2.0	.
COc1ccc(CCN2CC(C(=O)NCCc3cccc(F)c3)CCC2=O)cc1 (stereo unspecified)	-2.0	2.6	0.667	.	i	0.3	-1.4
Cc1ccc(CSc2nnc(-c3ccncc3)n2N)cc1	0.7	3.2	0.667	20.6%	i	0.0	-0.8

Sorted by formula weight (smallest number first): part of the list above.
SMILES	HNF4A DNA FP	UCH37 DUB inh	E coli growth	Vif A3G	FGF22 binding	MLL AF4-AF9 inh	RanGTP-Imp inh
COC1(OC)C(/C=C/c2ccc(Cl)cc2)C(C#N)(C#N)C1(OC)OC (stereo unspecified)	0.2	.	.	5.2%	.	.	1.7
COc1cccc(N2C(=O)N(c3ccccc3Cl)C3CS(=O)(=O)CC32)c1 (stereo unspecified)	-1.1	6.8	0.693	7.7%	.	.	?
COc1ccc(CCN2CC(C(=O)NCCc3cccc(F)c3)CCC2=O)cc1 (stereo unspecified)	-2.0	2.6	0.667	.	i	0.3	-1.4

Assay outcomes: PubChem BioAssay, several laboratories
